CapD inh: inhibitors of Bacillus anthracis CapD enzyme; AID 492967; z-score (concentration not given with the values); actives 0.23% (n = 140,000); purified CapD enzyme, fluorescence intensity read-out; stronger effect = lower value; some hits fall short of the stated cut;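 active = z-score under -4 in either of two replicates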;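 note: stock transfer was 100 nL into about 40 µL; score is relative to mean and spread of the plate; one replicate is shown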
AID504770: growth inhibitors of E. coli YBA685 in a screen for V. cholerae RctB (chromosome II replication) inhibitors | E. coli YBA685 rctB-dependent plasmid, OD600 growth, 3 h; stronger effect = lower value | z-score (concentration not given with the values) | actives 0.27% (n = 130,000) | AID 504770;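 active = z-score under -2 on both plates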;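 note: wells of about 30 µL received 100 nL stock; score is relative to mean and SD of the test wells; the first replicate is given; strong numbers were not always called active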
Numbers without * were called inactive.

What do the screens show for `Nc1ccc(N2CCCCC2)cc1N1CCCCC1`?
CapD inh: -1.93; AID504770: -0.4

How did O=c1cc(NCc2ccccc2)nc2ccccn12 do in these assays?
AID504770: -0.3

How did O=C(NCCCO)c1ccc(CSc2nc3ccccc3c(=O)[nH]2)cc1 do in these assays?
AID504770: 1.8

How did O=C1c2ccccc2S(=O)(=O)N1CC(O)Cn1c2ccc(Br)cc2c2cc(Br)ccc21 (stereo not drawn) do in these assays?
CapD inh: 0.115

Results for O=C(COC(=O)c1cc(=O)[nH]c2ccccc12)NCc1ccco1 ?
AID504770: 1.75

What do the screens show for `O=C(CCC1CCCC1)NCc1ccccn1`?
AID504770: 0.6

How did Cc1cc(=O)oc2cc(OC(=O)/C=C/c3ccccc3)ccc12 do in these assays?
CapD inh: 10.7; AID504770: -0.6

Results for Cc1ccc(OCc2nnc(SCC(=O)N(C)Cc3ccc(Cl)s3)n2N)c(C)c1 ?
AID504770: 1.95

Results for O=S(=O)(NC(=S)Nc1ccc(Cl)cc1)c1ccc(-n2nc(C(F)(F)F)cc2-c2cccs2)cc1 ?
CapD inh: 0.52

How did Cc1cc(C)nc(N/C=C(\C#N)C(=O)c2ccoc2C)n1 do in these assays?
CapD inh: -0.665; AID504770: -0.6

How did COc1ccc(C(=O)c2c(C(F)(F)F)oc3c2C(=O)c2ccccc2C3=O)cc1OC do in these assays?
CapD inh: -0.39; AID504770: -0.9

What do the screens show for `COc1ccc(COCC(O)CN2CCCCC2)cc1OC` (stereo not drawn)?
CapD inh: 0.275; AID504770: 0.25

How did CN1C(=O)C(C)(C)c2cc(S(=O)(=O)N3CCCC3C(=O)NCc3ccc(F)cc3)ccc21 (stereo not drawn) do in these assays?
CapD inh: -0.93; AID504770: -1.8

Results for O=C(c1ccc(-n2cccc2)cc1)N1CCN(c2ccc(Cl)cc2)CC1 ?
CapD inh: 0.53

How did Cc1ccc(-c2nc3ccccc3o2)cc1NC(=O)c1ccc2c(c1)OCO2 do in these assays?
CapD inh: 4.85; AID504770: -1.15

How did N#CCOc1ccc2c(=O)cc(-c3ccccc3)oc2c1 do in these assays?
CapD inh: 0.29; AID504770: -0.9

How did COc1ccccc1N=C(N)SCc1ccccc1 do in these assays?
CapD inh: 0.235

How did NS(=O)(=O)c1ccc(N2N=C(c3ccccc3)CC2c2ccccc2)cc1 (stereo not drawn) do in these assays?
CapD inh: 58.1

Results for CCOC(=O)N1CCC(NC(=O)c2cccs2)CC1 ?
CapD inh: -0.12; AID504770: -0.35

How did O=C(Nc1ccc(Oc2ccc(Br)c3ccccc23)c(Cl)c1)c1cc(Cl)ccc1O do in these assays?
CapD inh: -0.345

For convenience, part of the list above.
What do the screens show for `Nc1ccc(N2CCCCC2)cc1N1CCCCC1`?
CapD inh: -1.93; AID504770: -0.4

How did O=c1cc(NCc2ccccc2)nc2ccccn12 do in these assays?
AID504770: -0.3

How did O=C(NCCCO)c1ccc(CSc2nc3ccccc3c(=O)[nH]2)cc1 do in these assays?
AID504770: 1.8

How did O=C1c2ccccc2S(=O)(=O)N1CC(O)Cn1c2ccc(Br)cc2c2cc(Br)ccc21 (stereo not drawn) do in these assays?
CapD inh: 0.115

Results for O=C(COC(=O)c1cc(=O)[nH]c2ccccc12)NCc1ccco1 ?
AID504770: 1.75

What do the screens show for `O=C(CCC1CCCC1)NCc1ccccn1`?
AID504770: 0.6

How did Cc1cc(=O)oc2cc(OC(=O)/C=C/c3ccccc3)ccc12 do in these assays?
CapD inh: 10.7; AID504770: -0.6

Results for Cc1ccc(OCc2nnc(SCC(=O)N(C)Cc3ccc(Cl)s3)n2N)c(C)c1 ?
AID504770: 1.95

Results for O=S(=O)(NC(=S)Nc1ccc(Cl)cc1)c1ccc(-n2nc(C(F)(F)F)cc2-c2cccs2)cc1 ?
CapD inh: 0.52

How did Cc1cc(C)nc(N/C=C(\C#N)C(=O)c2ccoc2C)n1 do in these assays?
CapD inh: -0.665; AID504770: -0.6

How did COc1ccc(C(=O)c2c(C(F)(F)F)oc3c2C(=O)c2ccccc2C3=O)cc1OC do in these assays?
CapD inh: -0.39; AID504770: -0.9

Carrying on.
What do the screens show for `O=C(c1cccc2c1NC(c1cccc([N+](=O)[O-])c1)C1CC=CC21)N1CCCC1` (stereo not drawn)?
CapD inh: -1.54

What do the screens show for `COc1ccc(C2CC(=O)NC(SCC(=O)Nc3ccccc3C)=C2C#N)cc1OC` (stereo not drawn)?
CapD inh: -0.475

What do the screens show for `CN(C)S(=O)(=O)N=C1C=CC(=NS(=O)(=O)N(C)C)C=C1`?
AID504770: -0.15

Results for O=S(=O)(Oc1ccccc1)c1ccc2c(c1)Cc1cc(S(=O)(=O)Oc3ccccc3)ccc1-2 ?
CapD inh: -0.115

Results for COc1ccc(OCCNC(=O)c2ccco2)cc1 ?
CapD inh: -1.17; AID504770: 0.4

Results for CC(=O)Nc1cccc(C(=O)Oc2cccc(C)c2)c1O ?
CapD inh: 0.45; AID504770: 1.65

How did CCCc1cc(-c2ccc(O)c(OCC)c2)c(C#N)c(N)n1 do in these assays?
AID504770: -0.15

How did CCC(C)(C)NC(=O)c1cccc(S(=O)(=O)N2CCN(c3ccc(F)cc3)CC2)c1 do in these assays?
AID504770: -0.2

What do the screens show for `Cn1ccc(C(=O)OCC(=O)Nc2ccc(S(N)(=O)=O)cc2)n1`?
AID504770: -0.55

How did O=C(CN1C(=O)COc2ccccc21)NCc1ccccn1 do in these assays?
CapD inh: -0.21; AID504770: -0.4

How did CNC(=O)c1cccc2cccc(Sc3ccccc3C(=O)O)c12 do in these assays?
CapD inh: 0.01; AID504770: -0.5

What do the screens show for `CCOC(=O)c1oc2ccccc2c1COC(=O)c1cccc(-n2cnnn2)c1`?
AID504770: 0.45

How did O=C1CCC(c2ccccc2)=NN1c1ccc([N+](=O)[O-])cc1 do in these assays?
CapD inh: 0.225

How did CC(N=C1SCCN1C(=O)/C=C/c1ccco1)c1ccccc1 (stereo not drawn) do in these assays?
AID504770: 0.2

What do the screens show for `CCOc1ccc(-c2cc(C)n3nc(C(=O)Nc4ccc(Br)cc4)cc3n2)cc1`?
CapD inh: 10.4

How did CN(C)c1ccc(C2C3C(=O)N(Cc4ccccc4)C(=O)C3ON2c2ccccc2)cc1 (stereo not drawn) do in these assays?
CapD inh: -0.645

Results for CC(C)N1CCN(Cc2ccccc2)CC1 ?
CapD inh: -0.585; AID504770: 0.2

How did CC12CCC(=O)N1c1ccccc1C(=O)N2c1ccc(F)cc1 (stereo not drawn) do in these assays?
AID504770: 1.55

What do the screens show for `O=C(NC1CCCC1)C(c1ccc(Cl)cc1)N1CCCCC1` (stereo not drawn)?
CapD inh: -0.2; AID504770: 0.7

How did Fc1ccc2[nH]c3nc4cc(Cl)c(Cl)cc4nc3c2c1 do in these assays?
CapD inh: 0.46

How did Cc1nc(C(=O)NNC(=O)OCCc2ccccc2Br)cs1 do in these assays?
CapD inh: -0.26

How did CCOC(=O)c1sc2nc(SCC#N)n(CCc3ccc(OC)c(OC)c3)c(=O)c2c1C do in these assays?
CapD inh: -0.075

Results for CC(C)CC1(C)N=C(c2ccccc2)C(=S)N1 (stereo not drawn) ?
CapD inh: 1.84; AID504770: -0.6

How did O=[N+]([O-])c1cc(C(F)(F)F)ccc1-n1ccc(-c2cccs2)n1 do in these assays?
CapD inh: -1.56

What do the screens show for `CC(C)c1ccc(C(=O)CCN(C)C)cc1`?
CapD inh: -0.035; AID504770: -1.05

What do the screens show for `CCc1nc2ccccc2c(NC(=O)CN(CC)CC)c1C`?
AID504770: 1.6

What do the screens show for `O=C(CCCc1nc2ccccc2c(=O)[nH]1)Nc1ccc(F)c(Cl)c1`?
AID504770: 2.05

What do the screens show for `O=C(Cc1ccccc1)c1cc2c(cc1Br)OCCO2`?
CapD inh: -0.48

What do the screens show for `CCOc1ccc(N(CC)C(=O)COc2cc(=O)n(C)c3ccccc23)cc1`?
CapD inh: 0.805; AID504770: 0.4

Results for CC(C)N(C(=O)CSc1nnc(-c2ccccc2)o1)c1ccccc1 ?
CapD inh: -0.495; AID504770: -0.05

What do the screens show for `C/C(=N\O)C(=O)c1ccccc1`?
CapD inh: -0.45

What do the screens show for `Cc1cccc(C(=O)OC(C)CN2CCCC2)c1` (stereo not drawn)?
CapD inh: 0.06; AID504770: 1.4

How did O=C1CCN(C(=O)c2ccc(-c3nc4ccccc4s3)s2)CC1 do in these assays?
AID504770: 0.15

Results for O=S(=O)(c1ccc(Cl)cc1)N1CCC(O)(CN2CCCC2)CC1 ?
CapD inh: -0.55

Results for COc1ccc(-c2cc(=O)c3ccccc3s2)cc1 ?
CapD inh: -0.545; AID504770: -1.05

How did CS(=O)(=O)N1CCCC(C(=O)NCCCN2CCCCC2)C1 (stereo not drawn) do in these assays?
CapD inh: -0.02; AID504770: -0.55

What do the screens show for `Nc1cc(-c2ccc(Cl)cc2)nn1S(=O)(=O)c1ccc(F)c(F)c1`?
CapD inh: -0.865; AID504770: 1.7

How did CCc1ccc(Nc2nc(-c3ccccc3)cc(=O)[nH]2)cc1 do in these assays?
CapD inh: 0.755; AID504770: 1.15

How did COc1ccc(NC(=O)CSCc2ccc(C)cc2)cc1 do in these assays?
CapD inh: 0.1; AID504770: -0.55

How did Cc1ccc(NC(=S)Nc2ccc(C)c(C)c2)cc1C do in these assays?
CapD inh: 0.495

What do the screens show for `CCn1c(SC(C)C(=O)NC(N)=O)nc2ccccc21` (stereo not drawn)?
AID504770: -0.25

Results for CCOC(=O)c1cnc2ccc(OCC)cc2c1NCc1ccccc1 ?
CapD inh: 42.9; AID504770: 0.3

Results for CC(Nc1ccc(Br)cn1)c1cc(Cl)ccc1O (stereo not drawn) ?
CapD inh: -0.255; AID504770: -0.7

How did CC1CC(C)CN(Cc2cc(Cl)c(O)c(Cl)c2)C1 (stereo not drawn) do in these assays?
CapD inh: 0.545; AID504770: 0.45

How did Cc1nnc(NC(=O)c2ccc3c(c2)SC2=NS(=O)(=O)CCN23)s1 do in these assays?
AID504770: -0.5

How did COC(=O)c1cccc(NC(=O)CCCN2C(=O)c3ccccc3C2=O)c1 do in these assays?
CapD inh: -0.45; AID504770: -0.3

How did CSc1nc2ccc(NC(=O)c3ccc(S(=O)(=O)N4CCOCC4)cc3)cc2s1 do in these assays?
CapD inh: 0.525

What do the screens show for `COC(=O)c1cc(N2CCCCC2)ccc1NCc1cc2ccc(OC)cc2[nH]c1=O`?
CapD inh: 4.36; AID504770: -0.25

What do the screens show for `COc1cc(C2CC(=O)NC(SCC(=O)Nc3nccs3)=C2C#N)cc(OC)c1OC` (stereo not drawn)?
CapD inh: 18.6; AID504770: -0.3

What do the screens show for `COc1ccccc1C1CCN(CCCOc2ccc(Cl)cc2)CC1`?
CapD inh: 0.68; AID504770: 0.45

Results for CCc1ccc(-c2ccc(C(=O)NNC(=O)c3sc(-c4ccccc4)nc3C)cc2)cc1 ?
CapD inh: -0.56

What do the screens show for `Cc1ccc(S(=O)(=O)NC2CCN(Cc3c(C)nn(-c4ccccc4)c3C)C2)cc1[N+](=O)[O-]` (stereo not drawn)?
CapD inh: 0.5

Results for O=S(=O)(c1cc(Cl)ccc1Cl)N(Cc1ccco1)C(F)F ?
AID504770: -0.15

What do the screens show for `COc1cc([N+](=O)[O-])ccc1-c1ccc(/C=C2/C(C)=C(C#N)c3nc(N)c(C#N)c(C)c32)o1`?
CapD inh: -0.26

Results for CC1(O)N(CCC#N)C(=O)OC12CCCCC2 (stereo not drawn) ?
CapD inh: -0.285

What do the screens show for `CCN(CC)S(=O)(=O)c1cccc(-c2n[nH]c(=S)n2-c2ccccc2)c1`?
AID504770: 0.4

How did Clc1ccccc1CSc1nnnn1-c1ccccc1 do in these assays?
CapD inh: -0.41; AID504770: 0.8

What do the screens show for `CC1CCCC(NC(=O)CCCn2ncn3c(cc4occc43)c2=O)C1C` (stereo not drawn)?
CapD inh: -1.1; AID504770: 1.15

How did CC(C)/C=C1\CCCCC1N(C)C(=O)NC(C)C (stereo not drawn) do in these assays?
CapD inh: 0.34; AID504770: -0.1

How did O=C(NC(COC(=O)c1cccs1)c1ccccc1)c1cccs1 (stereo not drawn) do in these assays?
CapD inh: -0.175

What do the screens show for `COc1ccc(S(=O)(=O)N2CCCC2C(=O)Nc2nc3c(s2)CCCC3)cc1` (stereo not drawn)?
CapD inh: -0.93; AID504770: -0.15

What do the screens show for `CC(=O)N1CCc2cc(S(=O)(=O)CCC(=O)N(C)c3ccc(Br)cc3)ccc21`?
CapD inh: -0.085; AID504770: 1.7

How did Cc1cccc(N=Cc2c(O)n(-c3ccccc3)c(=O)c3ccccc23)c1 do in these assays?
CapD inh: -0.56; AID504770: 0.35

How did CC(=O)n1ccc2ccccc21 do in these assays?
CapD inh: 6.55; AID504770: 0

How did Cn1c(=O)cc2c3c(c(Br)ccc31)C(=O)c1ccccc1-2 do in these assays?
CapD inh: 0.345

Results for Cc1cc(C)nc(Sc2ccc3nnnn3n2)n1 ?
AID504770: -0.3

Results for CCOC(=O)N1CCC(Nc2nc3ccc(Cl)cc3n3cnnc23)CC1 ?
CapD inh: 3.82; AID504770: 1

How did COC(=O)c1ccc(N=Cc2cc(OC)cc(Br)c2O)cc1 do in these assays?
CapD inh: 0.145

Results for O=c1nc(NCc2ccco2)sc2ncccc12 ?
CapD inh: -0.105; AID504770: -1.35

What do the screens show for `Nc1nnc(SCC(=O)Nc2ccccc2N2CCOCC2)s1`?
CapD inh: -0.14; AID504770: 1.65

Results for Cc1cc(NC2CCCCC2)nc2ccc(N)cc12 ?
CapD inh: 0.48

Results for c1cc(-c2nnc3n2CCC3)ccn1 ?
AID504770: -4.4

How did CCOC(=O)N1CCN(S(=O)(=O)c2ccc(C(=O)Nc3ccc(-c4nc5ccc(C)cc5s4)cc3)cc2)CC1 do in these assays?
CapD inh: 0.195

How did CC(C)(C)Sc1nc2ccccc2[nH]c1=S do in these assays?
CapD inh: -2.75; AID504770: -0.75

How did CCOC(=O)CN1CC23C=CC(O2)C(C(=O)Nc2ccc(C(C)C)cc2)C3C1=O (stereo not drawn) do in these assays?
CapD inh: -0.235; AID504770: -1.7

Assay outcomes as filed in PubChem BioAssay.
